GIV-Gai inh: inhibitors of GIV GBA-motif binding to rat Galpha-i3; P08753; Galpha-i3/FITC-GIV peptide fluorescence polarization, 90 min; hits give low values; scaled: aluminum fluoride 0%, vehicle 100%; percent of control (FP), % (no concentration beside the values); 210,000 tested, 0.42% active;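 active means replicate mean at 85% of control or lower, very high polarization wells dropped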;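 further: wells of about 15 µL received 100 nL stock; the first replicate is given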
Target sequence (P08753 whole entry, looked up): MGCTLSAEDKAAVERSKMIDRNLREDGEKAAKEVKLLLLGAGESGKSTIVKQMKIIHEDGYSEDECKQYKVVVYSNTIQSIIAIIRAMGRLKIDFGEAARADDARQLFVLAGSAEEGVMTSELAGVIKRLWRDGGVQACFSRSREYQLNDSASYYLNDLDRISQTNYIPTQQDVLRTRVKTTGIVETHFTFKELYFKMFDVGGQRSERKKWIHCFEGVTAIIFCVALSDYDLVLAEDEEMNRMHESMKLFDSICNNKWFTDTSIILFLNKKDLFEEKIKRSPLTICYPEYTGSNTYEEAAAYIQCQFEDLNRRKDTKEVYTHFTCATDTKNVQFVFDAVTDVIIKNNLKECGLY
HCMV NEC inh: cytomegalovirus nuclear egress complex inhibition; 190,000 tested, 0.15% active; AID 1918969; inhibition, % (concentration not given with the values); HTRF UL50-UL53 interaction, normalized percent inhibition;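 active means both replicates at 50% or more, plus weaker picks with an unusually low signal ratio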;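 further: stock transfer was 100 nL into about 20 µL; 0% = negative control wells and 100% = wells with untagged competitor protein; inactives centre near -12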
Sa growth 42C: blocks Staphylococcus aureus growth | AID 720641 | 170,000 tested, 0.53% active | relative growth, % (no concentration beside the values) | S. aureus RN4220 growth, OD600, 20 h, 42 °C; hits give low values;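 active means growth at 42 °C up to 50% and 20 or more points under that at 30 °C, or under 10% at both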;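 further: 300 nL library stock went into each well; scaled to the means of positive and negative controls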
Sa growth 42C second temp: recorded beside Sa growth 42C, whose call it bears; relative growth, %; measured here: growth at 30 °C;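 optical density after 20 h as mean of two plates; 100% = untreated growth and lower means inhibition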
Numbers without * were called inactive; nt = no result given; & = joins results of further samples.

SMILES	GIV-Gai inh	HCMV NEC inh	Sa growth 42C	Sa growth 42C second temp
CCOc1ccc(CCNC(=O)CCc2c(C)nc3c4c(C)cc(C)nc4nn3c2C)cc1	102	-10	112	90
CN1CCN(S(=O)(=O)c2ccccc2C(F)(F)F)CC1	nt	-15	101	84
CCCCN(C)C(=O)C1(c2ccc(OC)cc2)CCOCC1	112	2	97	105
O=C(N/N=C/c1ccc(OC2CSC2)cc1)c1ccncc1	99	-22	100	106
COC(=O)c1ccc(-c2ccco2)n1Cc1nc(-c2cccc(Cl)c2)oc1C	109	0	93	91
O=C(O)c1cccc(NC2SC(=O)N(c3ccccc3)C2=O)c1 (stereo unspecified)	102	17	101	111
COCCCNc1nc(NCc2ccccc2OC)c2cnn(C)c2n1	109	nt	90	88
CCOc1ccc(C2Oc3nc(SC)nnc3-c3ccccc3N2C(=O)CC)cc1 (stereo unspecified)	107	-21	111	92
C=CCn1c(C(C)Oc2ccc(Cl)cc2)n[nH]c1=S (stereo unspecified)	103	11	98	82
FC(F)(F)c1cc(-c2cccnc2)nc2c(-c3ccc(Cl)cc3)cnn12	105	-22	nt	nt
CCOC(=O)N1CCC(NC(=O)Nc2cn(C)c(=O)c3ccccc23)CC1	98	-10	93	89
COc1cc(-c2nc3ccccc3c(=O)n2NC(=O)c2ccc(Br)cc2)cc(OC)c1OC	101	-20	nt	nt
N#CCC(=O)c1cccc(CSc2ccc(Cl)cc2)c1	104	2	100	72
CCOc1cc(/C=N/NC(=O)c2cccnc2)ccc1OCC(=O)N1CCCCC1	nt	-18	106	91
O=C(CNC(=O)c1ccccc1F)OCc1cc(=O)n2nc(C3CC3)sc2n1	116	nt	89	92
CN(CCc1ccccn1)C(=O)Nc1ccccc1	100	-32	92	84
COc1ccc(Cl)cc1NC(=O)c1sc(-n2nc(C)c(Cc3ccccc3)c2C)nc1C	106	-22	102	89
O=C(Cn1nc(-c2ccco2)ccc1=O)NC1CCCCC1	103	-48	114	97
COC(=O)c1cc(C(=O)c2cc(Br)ccc2O)coc1=N	nt	-24	115	95
Cc1ccc(C(=O)Cc2nc3ncccc3[nH]c2=O)cc1	nt	-12	93	95
COc1cc2c(cc1OC)C(c1cc(Br)ccc1O)N(C)CC2 (stereo unspecified)	103	-10	125	110
O=C(C1CC1)N1CCC2(CC1)Nc1cc(F)ccc1-n1cccc12	99	-25	nt	nt
Cc1ccc(OC(=O)CCC(=O)Nc2ccc(S(N)(=O)=O)cc2)cc1	106	-35	86	86
CCCn1c(SCC(=O)C23CC4CC(CC(C4)C2)C3)n[nH]c1=O	nt	-17	109	89
OC1(c2cccs2)CN(c2ccccc2)C2=[N+]1CCCS2 (stereo unspecified)	105	nt	97	80
CCOc1cc2c(c([N+](=O)[O-])c1)NC(c1ccc(Br)cc1)C1CC=CC21 (stereo unspecified)	110	1	nt	nt
COc1ccc(C2=NNC(=S)C3=CNc4ccccc4N32)cc1	nt	-53	102	81
CSc1cccc(NC(=S)Nc2cccc(SC)c2)c1	107	-8	67	58
CN(C(=O)c1ccc2c(Cl)c3c(nc2c1)CCC3)c1ccccc1	105	-1	98	93
O=C(CCCn1c2ccccc2c(=O)c2ccccc21)Nc1cccc(Cl)c1	105	-51	91	78
Cc1[nH]c2ccccc2c1C(=O)C(C)N1CCN(C/C=C/c2ccccc2)CC1 (stereo unspecified)	nt	12	103	79
CCC(Sc1nnc2c(n1)[nH]c1ccccc12)C(=O)Nc1nnc(C(C)C)s1 (stereo unspecified)	103	-21	81	88
COc1cc(Cl)c(NS(=O)(=O)c2ccc3c(c2)CC(C)N3C(C)=O)c(OC)c1 (stereo unspecified)	101	-9	102	83
CCc1nn(CC(=O)NC)c(=O)c2cc3occc3n12	102	-7	98	81
CCS(=O)(=O)c1ccc(C(=O)N2CCN(c3nc4c(OC)ccc(C)c4s3)CC2)cc1	94	nt	86	79
CCn1c(C(=O)O)c(CC(=O)Nc2ccc(C)cc2Br)c2ccccc21	103	-25	nt	nt
Oc1ccc(Cl)cc1C=Nc1cccc2nsnc12	74*	26	116	94
CN(C)c1ccc(NC(=O)Cn2ncn3c(cc4ccccc43)c2=O)cc1	99	-19	nt	nt
Cn1c(=O)c2ccccc2n2c(CCC(=O)N3CCc4ccccc4C3)nnc12	104	-5	99	93
CN(C(=O)C1CCCN(c2ncnc3c2nc2n3CCCCC2)C1)c1ccccc1F (stereo unspecified)	105	nt	97	62
CCOc1ccc(NC(=O)CSC2=NCCS2)cc1	99	nt	88	93
CCOC(=O)C1CCCN(C/C=C/c2ccccc2)C1 (stereo unspecified)	108	3	94	107
CC(C(=O)c1ccccc1)C1(O)C(=O)N(Cc2ccc(Cl)cc2)c2ccccc21 (stereo unspecified)	105	-22	nt	nt
COc1cccc(NC(=O)C2CCN(S(=O)(=O)c3cc(C(=O)N4CCCC4)cs3)CC2)c1	101	-10	nt	nt
Cc1ccc(C)c(N2CCN(C(=O)c3sc4ncccc4c3-n3cccc3)CC2)c1	96	0	nt	nt

Record cards, as listed above. Values in the order: GIV-Gai inh, HCMV NEC inh, Sa growth 42C, Sa growth 42C second temp
Results for `Cc1[nH]c2ccccc2c1C(=O)C(C)N1CCN(C/C=C/c2ccccc2)CC1` (stereo unspecified) : nt, 12, 103, 79
Results for `COc1cc(Cl)c(NS(=O)(=O)c2ccc3c(c2)CC(C)N3C(C)=O)c(OC)c1` (stereo unspecified) : 101, -9, 102, 83
Results for `CCOc1ccc(NC(=O)CSC2=NCCS2)cc1` : 99, nt, 88, 93
Results for `Cn1c(=O)c2ccccc2n2c(CCC(=O)N3CCc4ccccc4C3)nnc12` : 104, -5, 99, 93
Results for `CC(C(=O)c1ccccc1)C1(O)C(=O)N(Cc2ccc(Cl)cc2)c2ccccc21` (stereo unspecified) : 105, -22, nt, nt

(cont.)
SMILES	GIV-Gai inh	HCMV NEC inh	Sa growth 42C	Sa growth 42C second temp
COc1cc(OC)cc(C(=O)Nc2c(C)nc(Nc3ccccc3)nc2Nc2ccccc2)c1	99	-4	nt	nt
O=c1nc(SCc2ccccc2)c2c(n1CC1CCCO1)CCC2 (stereo unspecified)	101	-19	nt	nt
O=C(Nc1ccccc1)C1CCCN(S(=O)(=O)c2ccccc2)C1 (stereo unspecified)	100	7	86	99
O=C(c1cc(C2CC2)nn1-c1ccccc1)N1CCN(S(=O)(=O)c2ccc(F)cc2)CC1	nt	-12	84	90
Cc1cc(C)nc(SCC(=O)Nc2c(C)n[nH]c2C)n1	103	nt	110	97
CN1CCN(S(=O)(=O)c2ccc(-c3cc(C(F)(F)F)on3)s2)CC1	100	2	101	96
COc1cc(OC)cc(-c2nnc(SCC(=O)N=c3sccn3Cc3ccccc3Cl)o2)c1	nt	-31	93	88
Cc1cc(S(=O)(=O)Cc2ccc(N)cc2)c(C)cc1Cl	103	-4	108	90
Cc1ccc(C)c(NC(=O)CSc2nc(-c3ccccc3Cl)nc3c2Cc2c(CO)cnc(C)c2O3)c1	102	nt	94	102
CC1(C)C(=O)N(CC(=O)N2CCN(c3ncccn3)CC2)c2ccccc21	101	-5	nt	nt
Cc1cc(NC(=O)CCC2CCCC2)n(-c2ncnc3c2cnn3-c2ccc(Cl)cc2)n1	102	-14	nt	nt
CCN(CC)CC(=O)NN1CC(=O)N(c2cccc(Cl)c2)CC1=O	100	-18	87	88
CCN(CC)CCCNc1ncnc2c1cnn2-c1ccc(C)cc1	97	-17	91	89
CCC(C(=O)Nc1cc(OC)ccc1OC)n1nnc(C(=O)OC)c1C(=O)OC (stereo unspecified)	97	-24	85	82
CC1=C(C(=O)OC2CCCCCCC2)C(c2ccccc2Br)NC(=O)N1 (stereo unspecified)	99	-9	nt	nt
CCNC(=O)N1CCc2cc(S(=O)(=O)Nc3cccc(OC)c3)ccc21	100	-31	nt	nt
O=C(NC1CCCCCC1)c1cnc2n(c1=O)CCS2	102	-16	93	90
Cn1c(=O)n(C)c2cc(S(=O)(=O)Nc3ccccc3C(=O)O)ccc21	104	-13	102	86
CCOc1ccccc1NC(=O)Cn1c(=O)n(Cc2ccco2)c(=O)c2sc3ccccc3c21	104	-41	108	86
CCc1ccc(NC(=O)c2cnn3ccccc23)cc1	102	nt	79	77
Cc1nc2ccccc2nc1CSc1nc2ccccc2o1	nt	-10	91	83
COc1ccc2nc(SCC(=O)Nc3cccc(NC(C)=O)c3)[nH]c2c1	101	-12	nt	nt
CCC(C)NC(=O)Cn1c2ccccc2c2cn[nH]c(=O)c21 (stereo unspecified)	103	-14	87	82
C=CCN1C(CC(=O)Nc2cccc(Cl)c2)C(=O)NC2CCCCC21 (stereo unspecified)	103	-22	111	97
O=S(=O)(c1ccc(N2CCOCC2)nn1)C1CCCCC1	97	-13	nt	nt
CCCNCC(=O)Nc1cc(Cl)ccc1Cl	nt	-13	96	91
COc1ccccc1CNC(=O)CN1C(=O)CCc2cc(S(=O)(=O)N3CCOCC3)ccc21	103	nt	105	96
c1ccc(C(NCCNC(c2ccccc2)c2ccccc2)c2ccccc2)cc1	98	-5&-16	nt	nt
OC/C=C/C=C/c1ccc(F)cc1	97	-16	115	118
COC(=O)C1=C(C)N=C2SCCC(=O)N2C1c1ccccc1 (stereo unspecified)	nt	5	89	111
Cc1cccc(OC(=O)c2nc(SCc3ccccc3F)ncc2Cl)c1	108	8	105	104
C=CCNC(=O)c1scc2c1OCCO2	nt	-1	88	91
COc1ccc2c(c1)cc1n2CCN=C1NCCO	100	-50	99	82
CNC(=O)Cc1ccc(-n2c(=O)c3ccccc3n(CC(=O)Nc3ccccc3F)c2=O)cc1	102	-11	nt	nt
C=CCn1c(=S)[nH]c2ccc(Cl)cc2c1=O	nt	-22	97	85
CCOc1ccc(CNC(=O)CCn2cccn2)cc1OC	99	nt	73	89
CCOc1ccc(C2C(=O)N(C3CCCCCC3)CC(=O)N2CCc2ccccc2)cc1OC (stereo unspecified)	100	nt	125	89
O=C(Nc1cccc(Cl)c1Cl)NC1CC1	100	-16	104	102
CCCc1nn2c(=O)cc(COC(=O)c3ccco3)nc2s1	103	nt	93	98
N#CCSc1nnc(-c2ccc(Cl)cc2Cl)n1N	nt	-17	89	94
CC(C)(C)NC1=CC(=O)OC12CCCCC2	nt	-5	121	85
O=C(Oc1ccc(F)cc1)N1CCOCC1	99	-9	94	82
CCn1c(CN2CCCCC2)nc2cc(NC(=O)c3ccc([N+](=O)[O-])cc3)ccc21	108	-67	108	85
CS(=O)(=O)c1scc(-c2ccccc2Cl)c1C#N	102	-13	98	87
O=C(N/N=C1\CCCCc2ccccc21)c1cccnc1	nt	-18	78	78
O=C(CSc1nc2ccccc2nc1N1CCOCC1)NCc1ccc2c(c1)OCO2	109	nt	109	88
Cc1noc2nc(C(F)(F)F)cc(C(F)(F)F)c12	nt	-24	107	92
O=C(CN1CCc2ccccc2C1)NC1CCCC1	103	-20	109	85
Cc1ccc(NC(=O)Cn2c(=O)c3ccccc3n3nncc23)cc1	111	3	79	104
CCCN1CCC(NCc2ccco2)CC1	nt	12	93	92
O=C(O)c1ccc(C(=O)O)c(C(=O)O)c1	107	-9	100	95
Cc1cc(-c2ccccc2)nnc1-c1ccccc1	nt	-23	102	82
CCN1CCN(CCCNC(=O)CC2Oc3ccc(C)cc3NC2=O)CC1 (stereo unspecified)	102	-2	104	84
CCOC(=O)c1ccccc1NC(=O)Cn1c(=O)n(CCCC(=O)NCc2ccc3c(c2)OCO3)c(=O)c2ccccc21	103	-55	109	98
CC(C)c1ccc(OCc2nnc(SCC(=O)NC3CCCCC3)o2)cc1	107	-4	105	95
CC(=O)Nc1ccccc1OCC(=O)N(Cc1ccccc1)C(C)C	nt	29	87	91
Cc1ccc(S(=O)(=O)N(CCO)Cc2cc3cc(C)c(C)cc3[nH]c2=O)cc1	101	-22	87	95
COc1ccc(NC(=O)CSc2nc3ccccc3[nH]2)c(OC)c1	100	-12	92	76
CCn1c(C)c(C)c2cc(C(=O)NCCCN3CCCC3)ccc21	106	-20	104	97
CCOC(=O)N1CCN(C(=O)CN(c2ccc(OC)c(Cl)c2)S(=O)(=O)c2ccc(C)cc2)CC1	105	-16	nt	nt
Additional entries follow:
SMILES	GIV-Gai inh	HCMV NEC inh	Sa growth 42C	Sa growth 42C second temp
N#Cc1ccc(-c2ccccc2)[nH]c1=O	105	-90	112	107
CCN1CCN(c2cc(C)c3cc(NC(=S)N(C)Cc4ccccc4)ccc3n2)CC1	108	nt	91	84
CS(=O)(=O)N1CCCc2cc(C(=O)NC3CCCCCCC3)ccc21	107	-4	101	97
CCn1c(CSc2nc(C)cc(C)n2)nnc1SCc1ccccc1	108	-5	76	72
CC(C)C(=O)Nc1ccc2nc(SCC(=O)Nc3ccc(F)cc3)sc2c1	98	-7	nt	nt
CCC(=O)N1CCc2cc(Br)cc(S(=O)(=O)N3CCCCC3CC)c21 (stereo unspecified)	105	nt	118	88
Nc1ccc(S(=O)(=O)c2ccc(N)cc2)cc1	nt	-6&-20&-54	76	75

6 records picked at random from those above:
SMILES	GIV-Gai inh	HCMV NEC inh	Sa growth 42C	Sa growth 42C second temp
CC(C)C(=O)Nc1ccc2nc(SCC(=O)Nc3ccc(F)cc3)sc2c1	98	-7	nt	nt
CS(=O)(=O)N1CCCc2cc(C(=O)NC3CCCCCCC3)ccc21	107	-4	101	97
N#Cc1ccc(-c2ccccc2)[nH]c1=O	105	-90	112	107
CCC(=O)N1CCc2cc(Br)cc(S(=O)(=O)N3CCCCC3CC)c21 (stereo unspecified)	105	nt	118	88
CCn1c(CSc2nc(C)cc(C)n2)nnc1SCc1ccccc1	108	-5	76	72
CCN1CCN(c2cc(C)c3cc(NC(=S)N(C)Cc4ccccc4)ccc3n2)CC1	108	nt	91	84

Screening results from PubChem.
